KCNQ2 pot: potentiators of rat KCNQ2 potassium channel. actives 0.54% (n = 310,000). B-score at 10 µM. CHO-K1 KCNQ2, FluxOR thallium flux fluorescence; hits give high values. Potassium voltage-gated channel subfamily KQT member 2 (Rattus norvegicus), O88943;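 active means fluorescence ratio B-score at least 3 SD of library B-scores, with initial fluorescence B-score within 3 SD, cut at about 5.3 in these data; same plate scores as AID 2156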;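 further: B-score of peak minus minimum over baseline fluorescence ratio after K+ and Tl+ stimulus; positive B-score means potentiation of KCNQ2 with more thallium influx and brighter signal; only the inactives scoring about 0 or higher are listed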
Target sequence (O88943 whole entry, looked up): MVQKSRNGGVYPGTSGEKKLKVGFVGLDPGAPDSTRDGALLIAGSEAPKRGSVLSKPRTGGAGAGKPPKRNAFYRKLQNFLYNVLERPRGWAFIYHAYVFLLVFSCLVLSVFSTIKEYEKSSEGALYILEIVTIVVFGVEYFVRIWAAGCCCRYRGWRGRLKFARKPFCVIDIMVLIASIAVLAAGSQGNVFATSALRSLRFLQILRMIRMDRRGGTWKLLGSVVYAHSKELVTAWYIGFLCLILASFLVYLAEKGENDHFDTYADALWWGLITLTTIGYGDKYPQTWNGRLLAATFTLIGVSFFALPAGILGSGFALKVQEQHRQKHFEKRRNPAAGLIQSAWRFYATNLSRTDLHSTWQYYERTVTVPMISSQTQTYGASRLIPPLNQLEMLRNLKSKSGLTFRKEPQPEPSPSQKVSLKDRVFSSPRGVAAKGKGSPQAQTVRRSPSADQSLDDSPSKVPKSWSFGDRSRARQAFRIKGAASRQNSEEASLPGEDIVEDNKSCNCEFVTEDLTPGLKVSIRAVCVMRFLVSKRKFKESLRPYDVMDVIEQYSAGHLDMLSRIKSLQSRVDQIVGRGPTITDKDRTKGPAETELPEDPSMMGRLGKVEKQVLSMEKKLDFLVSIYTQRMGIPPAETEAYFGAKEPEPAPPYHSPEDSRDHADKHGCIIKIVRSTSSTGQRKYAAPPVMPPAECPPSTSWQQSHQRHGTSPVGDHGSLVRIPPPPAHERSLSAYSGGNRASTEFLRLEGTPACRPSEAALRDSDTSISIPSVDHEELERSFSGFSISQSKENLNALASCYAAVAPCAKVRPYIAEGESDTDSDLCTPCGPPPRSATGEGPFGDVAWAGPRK
KCNQ2 pot baseline: second read-out of KCNQ2 pot, no call of its own (marks repeat the call); B-score; compound at 10 µM; measured here: initial fluorescence intensity artifact check;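 brightness before thallium and not channel activity; 0 = typical well and far values either way flag optical interference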
An asterisk follows results filed as active. Some of the compounds tested. The share of hits here may be higher or lower than overall.

SMILES	KCNQ2 pot	KCNQ2 pot baseline
CN(C)c1ccc(N=Nc2ccccc2C(=O)OCC(=O)N2CCCC2)cc1	0.32	-0.01
O=c1cc(-c2ccc(C3CCCCC3)cc2)[nH][nH]1	1.8	0.09
CCCCOCC(O)Cn1c(C)nc2ccccc21 (stereo not given)	0.68	0.47
CCCC1=NN2C(=N)/C(=C\c3ccc(OCCOc4ccc(NC(C)=O)cc4)c(OC)c3)C(=O)N=C2S1	1.6	0.2
CCSc1nnc(-c2ccc(Cl)cc2)c2ccccc12	0.06	0.06
CC(=O)NC(c1ccc(F)cc1)c1cccnc1 (stereo not given)	0.02	-0.1
CC(=O)c1cccc(NC(=O)COC(=O)c2ccccc2C)c1	0.07	-0.28
COc1ccc(CCNc2nc(C)cc(C)c2C#N)cc1OC	0.03	-0.02
CCOc1ccc(-n2c(C)nc3cc(C(=O)NCc4ccco4)ccc32)cc1	0.79	0.13
COc1ccccc1C(=O)Nc1ccc(S(=O)(=O)N2CCN(C)CC2)cc1	0.61	-0.07
O=C(Nc1cc2c3c(c1)CC(=O)N3CCC2)C1CCCCC1	1.5	-0.2
COC(=O)CCC(=O)N1CN2CN(C(=O)CCC(=O)OC)CC([N+](=O)[O-])(C2)C1	0.22	0.35
O=c1c2cccc3c2c(nn1CN1CCOCC1)-c1ccccc1-3	1.1	-3.6
COc1ccc(N(C(=O)CNC(=O)c2cccs2)C(C(=O)NCC2CCCO2)c2ccccc2)cc1 (stereo not given)	0.7	-0.44
CCCS(=O)(=O)c1cscc1NC(=O)c1c(-c2c(F)cccc2Cl)noc1C	1	0.68
O=C(NC1CCCC1)C(c1cccnc1)N(C(=O)c1csnn1)c1ccccc1 (stereo not given)	2.1	1.9
C/C(=C\C(=O)c1cccnc1)Nc1ccc(C)c(C)c1	0.29	0.01
Cc1ccc(OCc2csc(N)n2)cc1	1.2	-0.01
Cn1ncc([N+](=O)[O-])c1C(=O)Nc1ccc(-c2ccccc2)cc1	0.01	-1.8
CC1(C)C(=O)C2(CCCCC2)C(=O)OC1C(=O)c1ccccc1 (stereo not given)	1.7	0.9
COCCn1c(SCC(=O)Nc2sc(C)c(C)c2C#N)nnc1C(C)C	0.57	-1
CN(C)CCCN(C(=O)c1ccco1)c1nc(-c2ccc(Cl)cc2)cs1	1.7	-1.4
Cc1ccc(NC(=O)c2ccccc2-c2ccccc2C(=O)O)cc1	0.44	-0.38
CCOc1ccc(CC(=O)NNC(=S)NC2CCCCC2)cc1OCC	1.3	0.75
CCC1CCC2(CC1)NC(CO)(CO)CO2 (stereo not given)	0.87	0.01
O=C(NC1CC2CCCC(C1)N2S(=O)(=O)c1ccccc1)c1ccco1 (stereo not given)	0.85	2.1
O=C(N/N=C/c1cccc2ccccc12)c1n[nH]c2c1CCCC2	1.4	0.58
Cc1ccc(NC(=O)Nc2ccc(C(=O)N3CCOCC3)cc2)cc1	1.2	0.33
Nc1cccnc1Sc1ccccc1	2.1	-0.43
CCCNC(=O)c1cc(S(=O)(=O)N2CCc3ccccc32)ccc1F	0.43	0.48

Next section (five carried over from the part before).
SMILES	KCNQ2 pot	KCNQ2 pot baseline
O=C(NC1CC2CCCC(C1)N2S(=O)(=O)c1ccccc1)c1ccco1 (stereo not given)	0.85	2.1
O=C(N/N=C/c1cccc2ccccc12)c1n[nH]c2c1CCCC2	1.4	0.58
Cc1ccc(NC(=O)Nc2ccc(C(=O)N3CCOCC3)cc2)cc1	1.2	0.33
Nc1cccnc1Sc1ccccc1	2.1	-0.43
CCCNC(=O)c1cc(S(=O)(=O)N2CCc3ccccc32)ccc1F	0.43	0.48
COc1cccc(Nc2ncnc3sccc23)c1	0.5	-0.58
CCOC(=O)N1CCC(NC(=O)C(CC(C)C)NC(=O)C2CCCCC2)CC1 (stereo not given)	0.31	2.1
CCOC(=O)C1=C(c2ccc(O)cc2)NC(=O)NC1C (stereo not given)	0.08	1
CCN(CC)C(=O)C(=O)c1cc(C)n(-c2ccc(F)cc2)c1C	0.33	0
CC1CCCN(C(=O)C2CCN(S(=O)(=O)c3cccc4cccnc34)CC2)C1 (stereo not given)	0.62	-0.57
NC(=O)CN1CCOCCOCCN(CC(N)=O)CCOCCOCC1	0.78	-0.07
O=C(Cc1ccccc1)NS(=O)(=O)c1ccc(N=NN2CCOCC2)cc1	0.9	-0.01
COc1ccc(CCN2C(=O)CC(N3CCN(c4ccccn4)CC3)C2=O)cc1OC (stereo not given)	0.6	1.5
CCCNC(=O)COc1coc(CN2CCN(C(=O)c3ccco3)CC2)cc1=O	0.63	-0.3
COc1cccc(NS(=O)(=O)c2ccc3c(c2)NC(=O)CC(=O)N3)c1	0.25	-0.69
Cc1c(Cl)cccc1NC(=O)N1CCN(C(=O)c2ccco2)CC1	1.3	-0.43
O=C(C[n+]1cc(-c2ccccc2)n2c1CCC2)Nc1nc(-c2ccccc2)cs1	2.2	-1
COc1ccc(OC)c(C(c2c(O)nc(SC)[nH]c2=O)c2c(O)nc(SC)[nH]c2=O)c1	0.26	0.16
CCOc1ccc(C(=O)Nc2cc(C)c3c(=O)oc4ccccc4c3n2)cc1	0.14	0.18
COc1ccc(C(=O)Nc2ccc(C(F)(F)F)n(C)c2=O)cc1	0.03	0.14
CC1NC(C)(C)Cc2c1ccc1ccccc21 (stereo not given)	0.25	0.01
O=C(Nc1ccc(N2CCCCC2)c(Cl)c1)c1cccnc1	1.3	0.02
Cc1ccc2c(c1)N(Cc1cccc(Cl)c1)C(=O)c1cccnc1O2	0.95	-0.23
CC(=O)N1CC2(CC(=O)OC(C)C)CN(C(C)=O)CC(CC(=O)OC(C)C)(C1)C2=O	2	1.4
CC(=O)c1cccc(CN2CCc3ccc(NC(=O)C4CCCO4)cc3C2)c1 (stereo not given)	1.5	0.46
CCNc1ccc2c(Cl)cc(=O)oc2c1	0.28	-2
O=C(NCCc1ccccc1)C1CCN(Cc2ccccc2F)CC1	0.03	-0.85
CCSc1ncc(C)cc1[N+](=O)[O-]	0.26	0.08
CCc1nc(SCc2cccnc2)c2c(=O)n(C)c(=O)n(C)c2n1	2.1	-0.75
COc1cc(C2/C(=C(\O)c3ccc4c(c3)CC(C)O4)C(=O)C(=O)N2CCCn2ccnc2)cc(OC)c1OC (stereo not given)	0.02	1.4
CCOC(=O)c1c(C)[nH]c(C(=O)/C(C#N)=C/c2ccc(OC)c(OC)c2)c1C	0.67	-1.3
Cc1ccc2cccc(OCC(=O)NCc3ccco3)c2n1	0.93	0
N/C(Cc1nc(-c2ccc(F)cc2)cs1)=N\O	0.01	1.4
Cn1c(SCc2ccccc2)nnc1-c1ccc2c(c1)OCO2	0.04	-0.74
O=C(N/N=C/C=C\c1ccccc1[N+](=O)[O-])c1ccco1	1.5	0.17

Next part
Fields – KCNQ2 pot | KCNQ2 pot baseline
> Cc1cccc(NC(=S)NNC(=O)c2csc3c2CCCC3)c1
 : 1.9 | -0.81
> CCCCOc1ccc(C2C(C(=O)c3ccc(C)o3)=C(O)C(=O)N2Cc2ccco2)cc1 (stereo not given)
 : 0.35 | 0.49
> CCOC(=O)CC(NC(=O)Cc1cccs1)c1ccccc1Cl (stereo not given)
 : 0.54 | -0.61
> CCc1cc2c(NCCC(=O)O)ncnc2s1
 : 1.7 | 1.5
> CCOC(=O)NN1C(=O)c2ccccc2NC1c1ccc(OC)c(OC)c1 (stereo not given)
 : 0.77 | 1.4
> CCCCN(C)CCNC(=O)C(=O)c1c(C)[nH]c2ccccc12
 : 1.9 | -0.34
> CCn1c2ccccc2c2cc(NC(=O)C(=O)NCC3CCCO3)ccc21 (stereo not given)
 : 0.35 | 1.5
> O=C(Cc1c[nH]c2ccccc12)N/N=C/c1ccc(F)cc1
 : 0.93 | -1.4
> COC(=O)c1[nH]c2cccc(C)c2c1NC(=O)CN1CCN(c2ccccc2OC)CC1
 : 2 | 0.05
> CC(=O)Nc1ccc(S(=O)(=O)N2CCSC2c2ccc(C)cc2)cc1 (stereo not given)
 : 0.64 | 1.2
> CNC(=O)COC(=O)c1ccc(Cl)c(S(N)(=O)=O)c1
 : 0.04 | -0.18
> CCCN1C(=O)/C(=C2\SC(N3CCCCC3)=NC2=O)c2ccccc21
 : 1.8 | 0.24
> COCCNC(=O)c1ccc2nc(Cc3ccc(OC)c(OC)c3)oc2c1
 : 0.16 | -0.04
> COc1ccc(C(=O)N2CCC(C(=O)O)CC2)c2ccccc12
 : 1.5 | 1.3
> Cn1cc(CN2CCC(C(=O)Nc3ccc(Oc4ccccc4F)cc3)CC2)cn1
 : 0.81 | 0.21
> O=C(C1CCN(c2nnc(-n3cccc3)s2)CC1)N1CCCCC1
 : 0.22 | 1.1
> CCOC(=O)C1(Cc2ccccc2C(F)(F)F)CCN(C2CCN(C(C)=O)CC2)CC1
 : 1.2 | -1.7
> OCCNc1c2ccccc2nc2ccccc12
 : 0.15 | 1.2
> Cc1cccc(N(CC(=O)NCC2CCCO2)C(=O)CNS(=O)(=O)c2ccc(Cl)cc2)c1 (stereo not given)
 : 1.2 | 1.1
> NC(=O)CNC(=O)[C@@H]1CC2(CC(c3cccc(Br)c3)=NO2)CN1C(=O)c1ccc(Br)cc1 (stereo not given in full)
 : 0.15 | -0.06
> CSc1ccc(/C=C/c2cc(=O)c3ccccc3[nH]2)cc1
 : 0.65 | -0.23
> COc1ccc(N2CCN(C(=O)CCCn3nnnc3CN3CCOCC3)C(C)C2)cc1 (stereo not given)
 : 0.61 | 1.4
> CCn1c(C)cs/c1=N\C(=S)Nc1ccccc1C
 : 0.62 | -1.6
> CC1(C)C=C(c2ccc(C=O)s2)CC(C)(C)N1C=O
 : 0.09 | -1.3
> Cc1ccccc1C(=O)N=c1ccn(-c2nc3ccccc3nc2NS(=O)(=O)c2ccc(F)cc2)cc1
 : 0.76 | 1.1
> Cc1ccc2nc(SCC(=O)NCc3ccco3)c(C#N)cc2c1
 : 0.29 | -2.7
> Cc1ccc(-c2nc3ncccc3o2)cc1NC(=O)COc1ccccc1
 : 0.51 | 0.05
> O=C(CSc1nnc(-c2ccccc2O)o1)Oc1ccc(OCc2ccccc2)cc1
 : 0.01 | -1.6
> O=C(c1ccco1)N1CCN(C(c2ccccc2F)c2nnnn2CC2CCCO2)CC1 (stereo not given)
 : 0.11 | -1.6
> O=[N+]([O-])c1ccc(/C=N/Nc2ccnc3cc(Cl)ccc23)o1
 : 1.6 | -0.3
> Cc1onc(-c2ccccc2)c1C1=N/C(=C\c2ccccc2F)C(=O)O1
 : 0.26 | -1.6
> CC1(C)Cc2c(cnn2-c2ccccc2)C(=O)/C1=N\NC(=O)c1ccncc1
 : 0.93 | 0.77
> CCN1C(=O)N[C@@H](CCc2ccccc2)[C@@H](C(=O)OC)[C@H]1C
 : 1 | -0.07
> COc1cccc(NC(=O)NCc2ccccn2)c1
 : 1.2 | -0.13
> O=C(NC1CCSC1=O)c1ccc(Oc2ccc(F)cc2)nc1 (stereo not given)
 : 0.05 | -0.32
> COc1ccc(OC)c(N(CC(=O)NCc2ccncc2)S(C)(=O)=O)c1
 : 0.14 | -3.1
> O=C(Nc1cccnc1)c1cccnc1
 : 0.73 | -0.89
> Cc1ccccc1NC(=O)Cc1nc(COC(=O)/C=C/c2ccccc2)cs1
 : 3.5 | 2.7
> CCOC(=O)Cn1nnnc1CN(Cc1cccs1)Cc1cc2cc(C)ccc2[nH]c1=O
 : 0.17 | -0.02
> COC(=O)Cc1cc(=O)n(-c2nc3ccccc3s2)[nH]1
 : 0.59 | -0.82
> O=C(Cn1ncc2c3ccccc3n(Cc3ccccc3)c2c1=O)NCCN1CCOCC1
 : 0.36 | 0.4
> Cc1ccc(N2C(=O)C3CCC(c4ccccc4)CC3C2=O)cc1 (stereo not given)
 : 1.3 | 1.9
> O=C(NCCCNc1ccc(C(F)(F)F)cc1[N+](=O)[O-])c1ccc(F)cc1
 : 0.29 | -0.46
> O=c1/c(=C/c2ccc(O)cc2)sc2nc3cc(Br)cnc3n12
 : 0.54 | -1.2
> Cc1ccc(-c2csc3ncnc(NCCN4CCOCC4)c23)cc1
 : 0.36 | 0.61
> CCOC(=O)N1CCN(C(=O)CC(C(=O)N2CCc3ccccc32)n2ccnc2)CC1 (stereo not given)
 : 0.35 | -0.56
> O=C1OCCC1Sc1nnc(-c2ccc(O)cc2)o1 (stereo not given)
 : 0.94 | -1.5
> CCCC(=O)Nc1cc(C)c(NC(=O)C23CC4CC(CC(C4)C2)C3)cn1
 : 0.54 | 2.5
> COc1cccc(OCC(=O)NNC(=O)Cc2cccs2)c1
 : 0.14 | -0.61
> COc1cc(/C=C2/NC(=O)N(c3cccc(Cl)c3)C2=O)ccc1O
 : 1.1 | -1.1
> CC(C)CCNC(=O)c1cccc(Cl)c1
 : 2 | -0.4
> CC(CCc1ccc(O)cc1)N(C)CCc1ccccc1 (stereo not given)
 : 0.19 | 0.63
> CC(C)(C)OC(=O)NC(Cc1ccccc1)C(=O)NCCCC(=O)O (stereo not given)
 : 1.1 | -0.28
> c1cc2c(cc1C1CCCCC1)c1c3n2CCN=C3CCC1
 : 1.9 | -0.41
> Cc1cc(NC2CCCCC2)n2c(n1)nc1ccccc12
 : 1.3 | -1.3
> O=C(NC1CCCCC1)NC1(C(=O)NCCCN2CCOCC2)CCCCC1
 : 0.33 | 3.6
> COc1nc(OC)nc(N2CCCCCC2)n1
 : 0.04 | 0.01

Looked up one by one from the list above, 4 records:
Fields – KCNQ2 pot | KCNQ2 pot baseline
> CC(C)CCNC(=O)c1cccc(Cl)c1
 : 2 | -0.4
> c1cc2c(cc1C1CCCCC1)c1c3n2CCN=C3CCC1
 : 1.9 | -0.41
> COc1cccc(OCC(=O)NNC(=O)Cc2cccs2)c1
 : 0.14 | -0.61
> COC(=O)Cc1cc(=O)n(-c2nc3ccccc3s2)[nH]1
 : 0.59 | -0.82

Compound profiles (already shown). Values in the order: KCNQ2 pot, KCNQ2 pot baseline
Shown for c1cc2c(cc1C1CCCCC1)c1c3n2CCN=C3CCC1 : 1.9, -0.41
Shown for COc1cc(/C=C2/NC(=O)N(c3cccc(Cl)c3)C2=O)ccc1O : 1.1, -1.1

Source: PubChem BioAssay (Johns Hopkins Ion Channel Center)
